# Screens (PubChem)
# VDR inh = inhibitors of human vitamin D receptor; VDR-SRC2-3 peptide fluorescence polarization, 2 h; P11473; Potency, µM, inactives show max response, negative = inhibition, hits mostly inhibitors; 0.93% of 400,000 active; active means well fitted inhibition curve with a large enough effect; inconclusive means small, poorly fitted or top-dose-only effect, or another doubt; inactive means no such curve, though single readings can be large or run the other way; further: series mostly up to about 120 µM
# Target sequence (P11473 whole entry, looked up): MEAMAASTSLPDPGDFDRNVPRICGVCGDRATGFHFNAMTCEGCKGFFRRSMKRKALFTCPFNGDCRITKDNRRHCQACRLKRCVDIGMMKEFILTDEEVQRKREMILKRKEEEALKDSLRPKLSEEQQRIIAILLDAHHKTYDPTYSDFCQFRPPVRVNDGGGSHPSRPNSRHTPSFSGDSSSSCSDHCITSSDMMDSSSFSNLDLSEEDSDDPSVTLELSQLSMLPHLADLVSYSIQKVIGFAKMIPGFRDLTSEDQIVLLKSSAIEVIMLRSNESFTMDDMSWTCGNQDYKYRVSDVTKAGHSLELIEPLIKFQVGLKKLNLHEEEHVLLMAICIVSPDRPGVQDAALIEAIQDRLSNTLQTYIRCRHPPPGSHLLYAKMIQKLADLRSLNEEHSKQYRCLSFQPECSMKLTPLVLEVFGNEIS
#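 After 23 nl compound addition and a short centrifugation, plates sat for 2 hours at ambient temperature; polarization of fluorescence then indicated loss of VDR binding to peptide SRC2-3.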
# * marks the source's active call; other numbers are inactive results; ? = inconclusive; & = joins results of further samples. On the % scale 0 is the no-effect control and ±100 the full control effect; potency means the concentration at half of the fitted maximal effect. This is a subset, so the mix of outcomes need not match the whole.
SMILES,VDR inh
COc1ccc2nc(/C(C#N)=C\c3ccc(Oc4ccc([N+](=O)[O-])cn4)cc3)[nH]c2c1,-17%
Cc1cccc(N/C=C(\[N+](=O)[O-])S(=O)(=O)c2ccccc2)c1C,10%
Cc1ccc(C)c(OCc2ccc(C(=O)Nc3ccc([N+](=O)[O-])cn3)o2)c1,8%
OCCNCCSc1ccc(Cl)cc1,-17%
CCCCN(CC)C(=O)Cc1cn(C)c2ccccc12,1%
O=C(CCn1c(=S)oc2ccccc21)N1CCN(c2ccc(F)cc2)CC1,-5%
CCC(=O)Nc1ccc(Br)c(Cl)c1,-1%
Cc1ccc(SCC(=O)NC2CC2)cc1,?
COc1cccc(CNC(=O)CCC2CCCN(C(=O)c3ccc(C)nc3)C2)c1 (centres undefined),12%
CC(C)OCC(O)CN1CCNCC1 (centres undefined),-16%
Cc1ccc2cc(C#N)c(NCCNC(=S)NCCCN(C)C)nc2c1C,-19%
COc1cccc2cc(-c3ccccc3)c(=O)oc12,9%
O=c1cc(C(F)(F)F)nc(-c2cccnc2)[nH]1,-2%
COc1cccc2cc(S(=O)(=O)c3ccccc3)c(=Nc3ccc4c(c3)OCCO4)oc12,-16%
O=C(Nc1ccc2c(c1)OCCO2)C1CCCN1S(=O)(=O)c1ccc(Cl)cc1 (centres undefined),-11%
Cc1cc(C(=O)NC2CCCc3c2cnn3-c2ccc(C)c(C)c2)nc(C)n1 (centres undefined),-3%
COc1ccc(OC)c(S(=O)(=O)Nc2ccc(Oc3ccccc3)cc2)c1,8%
NS(=O)(=O)c1ccc(NC(=O)C(=O)NCCC(=O)O)cc1,19%
COc1cc(N=C(N)N=C(N)N)cc(OC)c1,-18%
Cc1ccc(C(=O)O/N=C2/CC3CCC2(C)[C@@]3(C)CBr)cc1 (some centres undefined),8%
Cc1ccc(CSCC(=O)NCc2cccnc2)cc1,-9%
NC(=O)CSc1nnc(-c2ccncc2)n1CCc1ccccc1,-10%
CCOc1ccc(Nc2oc(-c3ccc(COc4ccc(C)cc4)o3)nc2C#N)cc1,2%
CC(C)C(=O)NC(CC(=O)O)c1ccccc1 (centres undefined),3%
O=C(NCc1ccccn1)C1CCN(S(=O)(=O)c2cnc[nH]2)CC1,6%
COc1ccc(N(C)S(=O)(=O)c2cccc(C(=O)NC3CCCCC3C)c2)cc1 (centres undefined),7%
Cc1ccc(S(=O)Cc2ccc(C(=O)NC3CCCCCC3)o2)cc1 (centres undefined),?
COC(=O)C1=C(N)Oc2cc(C)n(CCCn3ccnc3)c(=O)c2C1c1cccc(Cl)c1 (centres undefined),-5%
CN1CCN(c2ccc(NC(=O)c3ccccc3)cc2)CC1,12%
Cc1ccc(Nc2nc(C)c(NC(=O)c3ccc(C)cc3)c(Nc3ccc(C)cc3)n2)cc1,-2%
CCOc1ccccc1NC(=O)Cn1cc(C(=O)c2cccc(OC)c2)c(=O)c2ccc(C)nc21,4%
c1ccc(-c2nnc3sc(-c4cc5ccccc5o4)nn23)cc1,1%
O=C(CN(C(=O)CCC(=O)Nc1nccs1)c1ccc(F)cc1)NCc1ccc2c(c1)OCO2,-12%
COc1ccc(/C=N/n2cncn2)cc1Cn1cc([N+](=O)[O-])cn1,7%
O=C(O)C1SCCN1S(=O)(=O)c1ccc(N=NN2CCOCC2)cc1 (centres undefined),9%
Cc1ccc(NS(=O)(=O)c2ccc3c(c2)oc(=O)n3C)c(C)c1,10%
CC(C)c1nc2cc(C(=O)N(C)Cc3ccc(F)cc3)ccc2o1,2%
COc1ccccc1-n1c(SCC(=O)Nc2ccc(NC(C)=O)cc2)nc2c([nH]c3ccccc32)c1=O,-1%
CC(C)Oc1ccc(C(CC(=O)O)NC(=O)C(Sc2ccccc2)c2ccccc2)cc1 (centres undefined),-8%
CC(C)CCNC(=O)C1(O)c2ccccc2NC(=O)N1c1ccc(Cl)cc1 (centres undefined),4%
Cc1cc(C)n(CCCO)c(=O)c1C#N,5%
COc1ccc(O)c(/C=C(\C#N)C(=O)Nc2ccccn2)c1,-1%
CCN(CC)S(=O)(=O)c1ccc(N2CCOCC2)c(NC(=O)CCC2CCCCC2)c1,-3%
CSc1ncc(C(=O)NCCCc2ccccc2)c(C)n1,-12%
COc1ccc(C(=O)NCCn2cc(SCc3cc(C)ccc3C)c3ccccc32)cc1,5%
CO/N=C/c1ccc(OC)c(Oc2nc(OC)cc(OC)n2)c1,2%
COc1cc(C2C(C#N)=C(N)OC3=C2C(=O)CCC3)cc(OC)c1OC(=O)N1CCOCC1 (centres undefined),12%
CN(C)CCNc1cnn(-c2ccccc2)c(=O)c1Cl,-3%
Cc1ccc(NC(=O)Cn2cnc3c(NCc4ccccc4)ncnc32)cc1C,-21%
CC(=O)c1c(C)[nH]c(C(=O)OCC(=O)Nc2ncc(Cl)c(C)c2Cl)c1C,22%
COc1cc2cc(CN(CCN3CCCC3)C(=O)Nc3ccc(F)cc3)c(=O)[nH]c2cc1OC,-12%
Oc1ccc(-c2onc3ccc(Cl)cc23)cc1,-5%
COc1cc(OC)cc(C(=O)NCCSc2c[nH]c3ccccc23)c1,-15%
Cc1ccnc(NS(=O)(=O)c2cc(-c3cc(C)no3)ccc2C)c1,-3%
COCCn1c(=O)c(-c2cc(F)cc(F)c2)nc2cnc(N(C)C)nc21,-12%
Cc1ccc(Cn2nnc3c(=O)n(CC(=O)N4CCN(c5ccccc5)CC4)cnc32)cc1,-4%
CSCC[C@H](NC(=O)[C@@H]1Cc2ccccc2CN1)C(=O)Nc1cccc(C)c1,0%
CN1CCN(c2cc(-c3ccc(N(C)C)cc3)ncn2)CC1,2%
Cc1cccc(C)c1N1C(=O)c2cccc([N+](=O)[O-])c2C1=O,-20%
CCOc1ccccc1Nc1nnc(-c2cc3cc(Cl)ccc3oc2=O)s1,6%
# Next part:
SMILES,VDR inh
COc1ccc(C(C(=O)NCC2CCCO2)N(C(=O)Cn2nnc3ccccc32)c2ccccc2C(C)=O)cc1OC (centres undefined),-23%
O=C1OCCN1C(=O)[C@H]1[C@H](c2ccc(F)cc2)C(c2cccc(Cl)c2)=NN1c1ccccc1,20%&-7%
CCC(C)(C)NC(=O)C(c1ccc(F)cc1)N(Cc1ccco1)C(=O)CCC(=O)Nc1ccccn1 (centres undefined),2%
O=C(/C=C/c1ccccc1)NNC1=NS(=O)(=O)c2ccccc21,1%
CS(=O)(=O)c1ccc(Cl)c(NC(=O)COC(=O)c2ccc(F)cc2Cl)c1,3%
Cc1c(NC(=O)C2CCCCN2S(=O)(=O)c2ccc(Cl)cc2)c(=O)n(-c2ccccc2)n1C (centres undefined),-14%
CC(C)OCCCNc1ncc2c(n1)CC(c1cccs1)CC2=O (centres undefined),-10%
CN(C)S(=O)(=O)c1cccc(NC(=O)COC(=O)/C=C/c2ccc3c(c2)OCO3)c1,20%
Cn1c(=O)c2c(SCC(=O)N3CCN(c4ccccc4)CC3)nc(C3CC3)nc2n(C)c1=O,-3%
COc1ccc(NC(=O)c2onc(C)c2Cl)cc1,-19%
CCOC(=O)c1ccc(-n2c(CN3CCC(C(N)=O)CC3)nc3ccc([N+](=O)[O-])cc3c2=O)cc1,?
CCOc1ccc(Nc2cc(C(=O)NCc3ccccc3Cl)c3ccccc3n2)cc1,-4%
Oc1ccc(Nc2nc(-c3cccs3)cs2)cc1,-7%
CCn1c(COc2ccc(Cl)cc2)nnc1SCc1ccc(C#N)cc1,4%
COc1cccc(-c2csc(N3CCN(C(=O)Nc4ccccc4Cl)CC3)n2)c1,8%
CCn1c(=O)cc(NC2=NCC(C)CN2c2cccc(Cl)c2)n(C)c1=O (centres undefined),-4%
CCOC(=O)C1=NN(c2ccccc2C)C2=NC(C)=C(C(=O)OC)C(c3cccs3)N12 (centres undefined),-22%
O=C(Nc1ccccc1C(=O)Nc1ccccc1)c1ccco1,-6%
Cc1cccc(NC(=S)N2CCC(O)CC2)c1C,-5%
Cc1cc(C)cc(OCCSc2nc(-c3ccc(C(C)(C)C)cc3)nc3cc(=O)[nH]n23)c1,-6%
O=C(NCc1ccccc1Cl)C1CCN(S(=O)(=O)Cc2ccccc2)CC1,18%
CCC(C)NC(=O)c1cc(Cl)ccc1OC (centres undefined),-19%
CCC(C)[C@H]1CNCCN1CC1(c2ccccc2)CC1 (some centres undefined),-20%
Cc1oc(/N=C/c2ccccc2O)c(C#N)c1C,-2%
CCn1c(=O)cc(SCC(=O)N2CCC(C)CC2)c2ccccc21,15%
O=C(COC(=O)C1CC(O)CN1S(=O)(=O)c1ccccc1[N+](=O)[O-])c1ccc[nH]1 (centres undefined),-9%
Cc1ccccc1C(=O)NCCc1nnc(SCC(=O)Nc2nc(-c3ccccc3)cs2)n1C,15%
OC(COC(c1ccc(Cl)cc1)c1ccc(Cl)cc1)CN1CCN(c2ccccn2)CC1 (centres undefined),2%
Cc1nn(CC(=O)NCc2ccc(C(=O)O)cc2)c(C)c1[N+](=O)[O-],7%
Cc1occc1C(=O)N/N=C/c1ccc(OCc2ccccc2)cc1,-3%
COc1ccccc1-c1nc(SCC(=O)c2ccc(Cl)cc2)n[nH]1,0%
Oc1c(N=Nc2ccccn2)ccc2ccccc12,?
CCOC(=O)N1CCN(c2cc(=O)n(C)c(=O)n2C)CC1,-3%
O=C(N/N=C/c1ccco1)C(O)C(O)C(=O)N/N=C/c1ccco1 (centres undefined),1%
O=C1c2cccc3cccc(c23)N1Cc1ccc(F)cc1,-8%
Cc1ccc(-c2nc(N3CCN(C)CC3)c3ccccc3n2)cc1,0%
Cc1ccc(NC(=O)CSc2nc3ccccc3c3nc(CCc4c(C)n[nH]c4C)nn23)cc1F,-8%
O=C(c1cc2c(=O)n3ccccc3nc2s1)N1CCOCC1,-18%
CC(C)CC(=O)Nc1ccc(S(=O)(=O)NCc2ccco2)cc1,6%
O=C(CCCn1cc([N+](=O)[O-])cn1)NCc1ccccc1,-15%
Cc1ccc(-n2c(SCc3nc4ccccc4c(=O)[nH]3)nnc2-c2ccccc2O)cc1,-15%
O=C(Nc1cccnc1)c1c(O)c2cccc3c2n(c1=O)CC3,1%
CCN(CC)S(=O)(=O)c1ccc(NC(=O)C2CC(=O)N(c3ccc4c(c3)OCCO4)C2)cc1 (centres undefined),-7%
Cc1cccc(OCC(=O)OCC(=O)N(CC(C)C)c2c(N)n(Cc3ccccc3)c(=O)[nH]c2=O)c1C,-15%
Cc1cc(C(=O)Nn2c(-c3ccncc3)nc3ccccc3c2=O)ccc1[N+](=O)[O-],-2%
O=C(COC(=O)c1ccc(O)cc1O)Nc1ccc2ccccc2c1,-10%
Cc1cc(C(=O)COc2ccccc2C(N)=O)c(C)n1C1CC1,-7%
CCOc1ccccc1N1CCN(C(=O)CNC(=O)c2ccccc2F)CC1,-3%
c1cncc(-c2nccc(-n3ccnc3)n2)c1,7%
COc1ccc(CCN2C(=O)NC(NC(=O)CCc3ccccc3)(C(F)(F)F)C2=O)cc1OC (centres undefined),10%
O=C(Nc1cccc2nsnc12)c1ccc2c(c1)OCO2,9%
Cc1ccc(-n2nnc(-c3nccs3)n2)cc1,-6%
COc1ccc(NC(=O)CC2SC(=NCC3CCCO3)NC2=O)cc1 (centres undefined),-12%
CCS(=O)(=O)N1N=C(c2cccc(NS(C)(=O)=O)c2)CC1c1ccccc1 (centres undefined),10%
COc1ccc(C(=O)COC(=O)c2c(-c3ccccc3)noc2C)c(OC)c1,5%
COc1ccc(CCNC(=O)CCCNC(=O)Cn2cnc3sc(C)c(C)c3c2=O)cc1OC,8%
CCOC(=O)c1c(C)[nH]c(C)c1S(=O)(=O)N1CCN(c2cc(Cl)ccc2C)CC1,7%
Cn1c[n+](C)cc1/C=N/O,-9%
CC1CCCCN1CCCNC(=O)Cn1ncc2c3ccccc3n(C)c2c1=O (centres undefined),6%
CCC(/C=C1\Sc2ccc(OC)cc2N1CCO)=C\c1sc2ccc(OC)cc2[n+]1CCO,79µM*

# The closing 2 compounds of the section above open the next one:
SMILES,VDR inh
CC1CCCCN1CCCNC(=O)Cn1ncc2c3ccccc3n(C)c2c1=O (centres undefined),6%
CCC(/C=C1\Sc2ccc(OC)cc2N1CCO)=C\c1sc2ccc(OC)cc2[n+]1CCO,79µM*
COc1ccc(N2CCN(C(=O)c3cc4ccccc4o3)CC2)cc1,-11%
O=C(NCc1ccccc1Cl)c1ccc2ccccc2n1,1%
COc1cc(OC)cc(C(=O)NC2CCN(CC(=O)Nc3cccc4ccccc34)CC2)c1,15%
c1ccc(-c2ncc(-c3ccn[nH]3)s2)cc1,6%
COc1ccc(-c2ccc(NS(=O)(=O)c3ccccc3)cc2)nn1,-2%

# 19 entries from above, with tabs:
canonical_smiles	VDR inh
COc1cccc(CNC(=O)CCC2CCCN(C(=O)c3ccc(C)nc3)C2)c1 (centres undefined)	12%
CC(C)OCC(O)CN1CCNCC1 (centres undefined)	-16%
Cc1ccc2cc(C#N)c(NCCNC(=S)NCCCN(C)C)nc2c1C	-19%
COc1cccc2cc(-c3ccccc3)c(=O)oc12	9%
O=c1cc(C(F)(F)F)nc(-c2cccnc2)[nH]1	-2%
COc1cccc2cc(S(=O)(=O)c3ccccc3)c(=Nc3ccc4c(c3)OCCO4)oc12	-16%
O=C(Nc1ccc2c(c1)OCCO2)C1CCCN1S(=O)(=O)c1ccc(Cl)cc1 (centres undefined)	-11%
Cc1cc(C(=O)NC2CCCc3c2cnn3-c2ccc(C)c(C)c2)nc(C)n1 (centres undefined)	-3%
COc1ccc(OC)c(S(=O)(=O)Nc2ccc(Oc3ccccc3)cc2)c1	8%
NS(=O)(=O)c1ccc(NC(=O)C(=O)NCCC(=O)O)cc1	19%
COc1cc(N=C(N)N=C(N)N)cc(OC)c1	-18%
Cc1ccc(C(=O)O/N=C2/CC3CCC2(C)[C@@]3(C)CBr)cc1 (some centres undefined)	8%
Cc1ccc(CSCC(=O)NCc2cccnc2)cc1	-9%
NC(=O)CSc1nnc(-c2ccncc2)n1CCc1ccccc1	-10%
CCOc1ccc(Nc2oc(-c3ccc(COc4ccc(C)cc4)o3)nc2C#N)cc1	2%
CC(C)C(=O)NC(CC(=O)O)c1ccccc1 (centres undefined)	3%
O=C(NCc1ccccn1)C1CCN(S(=O)(=O)c2cnc[nH]2)CC1	6%
COc1ccc(N(C)S(=O)(=O)c2cccc(C(=O)NC3CCCCC3C)c2)cc1 (centres undefined)	7%
Cc1ccc(S(=O)Cc2ccc(C(=O)NC3CCCCCC3)o2)cc1 (centres undefined)	?
